HPGD inh: inhibitors of human 15-hydroxyprostaglandin dehydrogenase (HPGD); P15428; purified HPGD, NADH fluorescence kinetic, PGE2 substrate; Potency, µM, for the others: top-dose activity change, negative = inhibition, usual class: inhibitors; 150,000 compounds, 4.3% hits; AID 894; active = well fitted inhibition curve with a large enough effect (not every such curve was filed as active); inconclusive = small, poorly fitted or top-dose-only effect, or another doubt; inactive = no such curve, though single readings can be large or run the other way;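 also: top concentration of the series not given in the record; plate controls included wells without enzyme; inactives centre near -10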
Target sequence (P15428 whole entry, looked up): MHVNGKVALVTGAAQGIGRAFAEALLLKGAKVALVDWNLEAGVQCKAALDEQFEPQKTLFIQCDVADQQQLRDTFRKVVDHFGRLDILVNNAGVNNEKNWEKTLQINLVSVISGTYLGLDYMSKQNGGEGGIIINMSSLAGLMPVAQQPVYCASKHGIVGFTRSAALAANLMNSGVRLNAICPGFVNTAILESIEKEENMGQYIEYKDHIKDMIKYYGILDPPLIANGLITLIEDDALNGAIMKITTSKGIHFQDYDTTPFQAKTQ
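20 nM HPGD preincubated 15 min at room temperature with compound in 50 mM Tris-HCl pH 8, 0.01% Tween 20. Started with 1 mM NAD+ and 30 uM prostaglandin E2; NADH fluorescence (360/450 nm) read 5 times over 30-s intervals, last minus first.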
An asterisk follows results filed as active; ? = inconclusive. % is scaled to controls: 0 for no effect and ±100 for the full control effect; potency is read from the fitted curve at half-maximal effect. Only part of the results is shown. The share of hits here may be higher or lower than overall.

HPGD inh	molecule
-6%	CCC(=O)Nc1ccccc1Nc1cc(C#N)c(C#N)cc1[N+](=O)[O-]
-2%	O=C(Nc1ccccc1N1CCN(c2ccc(F)cc2)CC1)C12CC3CC(CC(C3)C1)C2
-6%	COC(=O)/C=C/C(=O)N1CCN(c2ccccc2C)CC1
-4%	COc1ccccc1NC(=O)CSC(N)=O
-10%	CC(=O)Nc1nc(C(=O)Nc2c(C)n[nH]c2C)cs1
-23%	COc1ccc(/C=C2\C(=O)NC(=S)N2C(=O)c2ccc(F)cc2)cc1
-20%	CC1Cc2nc(SCC(=O)c3ccccc3)n(Cc3ccccc3)c(=O)c2S1 (centres undefined)
-6%	CCSc1nnc(-c2ccc(C)cc2)c2ccccc12
-21%	Cc1onc(-c2c(Cl)cccc2Cl)c1C(=O)N/N=C(\N)COc1ccc(Cl)cc1
-16%	CC(=O)c1c(N2CCN(Cc3ccccc3)CC2)[nH]c(-c2ccccc2)nc1=S
-3%	O=C1C2(CCC13COC(c1ccc(O)cc1)OC3)COC(c1ccc(O)cc1)OC2 (centres undefined)
-13%	O=C(c1cccc(C(F)(F)F)c1)N1CCOC12CCN(c1ncc(C(F)(F)F)cc1Cl)CC2
8.9µM*	CCOC(=O)c1c(N)sc(C(=O)N2CCCCC2)c1C
-7%	Cc1csc(NC(=O)CSc2nnc(C)n2Cc2ccco2)n1
-19%	C/C(=N/NC(=O)c1sc(NS(=O)(=O)c2ccccc2)nc1C)c1ccc(F)cc1

Marked active in HPGD inh (from the list above):
HPGD inh	molecule
8.9µM*	CCOC(=O)c1c(N)sc(C(=O)N2CCCCC2)c1C

New compounds follow
HPGD inh	molecule
-7%	COc1ccc(C2C(C(=O)N3CCCCC3)CCC(=O)N2c2cc(OC)c(OC)c(OC)c2)cc1 (centres undefined)
?	CN(C)c1ccc(-c2noc(C3CCN(S(=O)(=O)c4cccc(Cl)c4)CC3)n2)cc1
-10%	COc1cc2c(cc1OC)CN(C(=S)Nc1ccccc1)CC2
-3%	Cc1nn(CC(=O)N2CCN(Cc3ccccc3)CC2)c(=O)c2ccccc12
?	CCOC(=O)CC(=O)CSc1nc2c(cc1C#N)CCCCCC2
-27%	COc1ccc(Oc2ncc3nc(CCc4ccccc4)c(=O)n(C4CC4)c3n2)cc1
?	Cc1cc2n(n1)C(c1ccco1)Nc1ccccc1-2 (centres undefined)
2%	O=C(Nc1ccc(F)cc1)NC1(C(=O)NCc2ccc3c(c2)OCO3)CCCCC1
6%	CC(C)(C)NCC(O)COCc1ccc(Cl)cc1 (centres undefined)
18µM*	Cc1cc(C(=O)CSc2nnc(NCc3ccccc3)s2)c(C)n1C
-29%	O=C(CCn1nc(-c2ccc(Cl)cc2)c2ccccc2c1=O)NCC1CCCO1 (centres undefined)
22µM*	COc1cc(-c2nc3cnccn3c2Nc2ccc3c(c2)OCCO3)ccc1O
-2%	COc1ccccc1N1CCN(C(=O)CCCC2=NS(=O)(=O)c3ccccc3N2)CC1
-2%	CNC(=O)C(=O)NCC1OCCCN1S(=O)(=O)c1cccs1 (centres undefined)
-17%	O=C(CN1C(=O)c2ccccc2C1=O)Nc1sc2c(c1C(=O)NCC1CCCO1)CCC2 (centres undefined)
-29%	O=C(N/N=C\c1ccco1)Nc1cccc(Cl)c1
-4%	OCCN(CC(O)Cn1ccc2ccccc21)CC(O)Cn1ccc2ccccc21 (centres undefined)
?	COc1ccccc1-c1nc(-c2cccc(C)c2)no1
?	N#Cc1c(C(F)(F)F)cc(-c2ccco2)nc1SCc1ccncc1
-7%	Cc1ccc(/C(O)=C2\C(=O)C(=O)N(CC(C)O)C2c2cccc(F)c2)cc1 (centres undefined)
?	COc1ccc(-c2nc(CS(=O)CC(=O)NCCCN3CCCC3)c(C)o2)cc1OC (centres undefined)
-4%	O=C(Cn1nc(C(F)(F)F)c2c1CCC2)N1CCN(c2ccccc2)CC1
?	CC1(C)CC(=O)C2=C(C1)c1c(ccc3ccccc13)NC2c1ccc(Br)o1 (centres undefined)
-4%	Cc1nc(SC(C)C)[nH]c(=O)c1Cc1ccccc1
-2%	CCn1cc(C(=O)NCCCOC)c(=O)c2cc(S(=O)(=O)N(C)C3CCCCC3)ccc21
-3%	Clc1ccc(Nc2nc(-c3cccs3)cs2)nc1
-14%	COCCNC(=O)COC(=O)c1[nH]c(C)c(C(C)=O)c1C
-6%	CC(=O)NC(=S)Nc1cccc(S(=O)(=O)NC2=NCCC2)c1
?	COc1cc(OC)c2c(c1)OC(c1ccccc1)CC2=O (centres undefined)
-5%	Cn1c(=O)c(C(=O)Nc2ncccn2)c(O)c2ccccc21
-28%	CCc1nnc(/N=C/c2c(O)n(-c3ccc(Cl)cn3)c(=O)c3ccccc23)s1
-10%	COCCN(Cc1cc2cccc(C)c2n2nnnc12)C(=O)C(F)(F)F
-2%	COC(=O)CCC(=O)OC1(C)C(=O)C=C2C=C(C3CC3)N(CC3CC3)C=C2C1=O (centres undefined)
-10%	CC(C)CCNC(=O)C1CCCCN1S(=O)(=O)c1ccc(F)cc1 (centres undefined)
3%	CC(C)(C)NC(=O)/C(=C/c1ccco1)c1ccccc1
16µM*	Cc1ccc(O)c(Sc2cc(C)ccc2O)c1
-5%	CCOC(=O)c1cc(S(=O)(=O)NC2CCN(C(=O)OCC)CC2)cn1C
-14%	CCN(CCN(C)C)C(=O)Cn1ncc2c1-c1cc(C)ccc1OC2
1%	CC(C)CCn1c(CN2CCN(C(=O)c3ccco3)CC2)nc2c1c(=O)n(C)c(=O)n2C
-20%	COc1ccc(NC(=O)/C(C#N)=C/c2ccc(Br)o2)cc1
-10%	COC(=O)c1c(NC(=O)CSc2nc(-c3ccco3)cc(C(F)(F)F)n2)sc2c1CCCC2
-27%	Cc1cc(-c2nnc3sc(-c4ccc(Cl)cc4Cl)nn23)n[nH]1
-3%	CCCCSCc1[nH]c(=O)[nH]c1C(=O)CCCCC(=O)OCC
-1%	COCc1nnc(SCC(=O)NC(C)c2ccccc2)n1-c1ccccc1 (centres undefined)
0%	O=C(NC1CCCCC1)C(Cc1ccccc1)NS(=O)(=O)c1cccs1 (centres undefined)

7 compounds from above, sorted by length of the SMILES, lowest first.
HPGD inh	molecule
-20%	COc1ccc(NC(=O)/C(C#N)=C/c2ccc(Br)o2)cc1
-14%	CCN(CCN(C)C)C(=O)Cn1ncc2c1-c1cc(C)ccc1OC2
-27%	Cc1cc(-c2nnc3sc(-c4ccc(Cl)cc4Cl)nn23)n[nH]1
-5%	CCOC(=O)c1cc(S(=O)(=O)NC2CCN(C(=O)OCC)CC2)cn1C
-2%	COC(=O)CCC(=O)OC1(C)C(=O)C=C2C=C(C3CC3)N(CC3CC3)C=C2C1=O (centres undefined)
1%	CC(C)CCn1c(CN2CCN(C(=O)c3ccco3)CC2)nc2c1c(=O)n(C)c(=O)n2C
-10%	COC(=O)c1c(NC(=O)CSc2nc(-c3ccco3)cc(C(F)(F)F)n2)sc2c1CCCC2

Two entries from above, with each value named:
> COC(=O)c1c(NC(=O)CSc2nc(-c3ccco3)cc(C(F)(F)F)n2)sc2c1CCCC2
  HPGD inh: -10%

> Cc1cc(-c2nnc3sc(-c4ccc(Cl)cc4Cl)nn23)n[nH]1
  HPGD inh: -27%

More entries.
HPGD inh	molecule
?	O=C(O)c1ccccc1NCN1C(=O)C2CC=C(Cl)CC2C1=O (centres undefined)
-9%	CCOC(=O)CSc1nnc(SCCN2C(=O)c3ccccc3C2=O)s1
-19%	CCOC(=O)C1CCN(C(=O)NC23CC4CC(CC(C4)C2)C3)CC1
-28%	Cc1ccc(Nc2nc(-c3ccc(S(=O)(=O)N4CCCC4)cc3)cs2)cc1C
-2%	CC1(C)Cc2cccc(OCC(=O)Nc3ccccc3N3CCOCC3)c2O1
-14%	C/C(Cl)=C\Cn1c(Nc2ccccc2)nc2c1c(=O)n(C)c(=O)n2C
-2%	Cc1ccc([N+](=O)[O-])cc1S(=O)(=O)NCCc1c(C)[nH]c2c(C)cccc12
-9%	Cc1ccc(N2C(=O)c3n[nH]c(C)c3C2c2cccnc2)cc1 (centres undefined)
2%	Cc1ccc(N2CC(C(=O)Nc3nnc(C)s3)CC2=O)cc1 (centres undefined)
-10%	CN(CCCC(=O)Nc1nccs1)S(=O)(=O)c1ccc(Cl)cc1
14µM*	C=CCNC(=O)c1ccc(Cl)cc1Cl
-8%	COc1ccc(NS(=O)(=O)c2cc(NC(=O)CNC(=O)c3cccc(OC)c3)ccc2C)cc1
-7%	Cc1ccccc1NC(=O)C1(NC(=O)c2cccc(N3C(=O)CSC3c3ccccc3)c2)CCCCC1 (centres undefined)
-15%	CCC(C)NC(=O)CSc1nc2ccccc2c(=O)n1CCCC(=O)NCC1CCCO1 (centres undefined)
0%	CCOc1ccc(NS(=O)(=O)c2ccc(NS(=O)(=O)c3ccccc3)cc2)cc1
-18%	CCn1c(-c2cc(Cl)ccc2OC)n[nH]c1=S
-10%	CN1CCN(C(=O)c2ccccc2-c2ccccc2C(=O)O)CC1
-5%	CC(CCc1ccccc1)NC(=O)C(=O)NCCO (centres undefined)
-1%	Nc1nc(CSCCO)nc(Nc2ccc(F)cc2)n1
-3%	CSc1nc(N2CCOCC2)c2c3c(sc2n1)CCC3
-13%	O=S(=O)(O)c1cc(O)c2c(O)c(N=Nc3cccc4ccccc34)c(S(=O)(=O)O)cc2c1
-13%	CCc1ccc(CC)c(S(=O)(=O)Nc2ccc(O)c(C(=O)O)c2)c1
-13%	O=C1S/C(=C\C=C\c2ccco2)C(=O)N1c1ccc(O)cc1
0%	Cc1cc(Cl)ccc1OCC(=O)N/N=C1\CCCc2ccccc21
?	CCOC(=O)CC(=O)CSc1nc2c(cc1C#N)CCCCC2
-11%	COc1nnc(-c2ccc(N3CCOCC3)c(NC(=O)c3ccco3)c2)c2ccccc12
-2%	COc1cc(C=NCC2OCCc3ccccc32)cc(OC)c1 (centres undefined)
-7%	CCCCn1c(CN2CCN(C(=O)c3ccco3)CC2)nc2c1c(=O)n(C)c(=O)n2C
-19%	COC(=O)c1cccc(S(=O)(=O)N2CCC(n3nnc4cc(F)ccc43)CC2)c1
-6%	COc1cccc(NC(=O)c2cccnc2)c1
?	O=c1c2[nH]c3ccc(F)cc3c2ncn1CCCn1ccnc1
-12%	COc1ccc(Nc2ncnc3c2cnn3Cc2ccc(C)cc2)cc1
-6%	O=C(NC(Cc1ccc(F)cc1)C(=O)O)c1ccccc1 (centres undefined)
-3%	Cc1cc(C)cc(C(=O)N2CC(C)SC2=Nc2cccc(S(=O)(=O)N(C)C)c2)c1 (centres undefined)
-4%	Cc1cc(=O)n2nc(N3CCCC(C(=O)NCCc4ccccc4)C3)sc2n1 (centres undefined)
-3%	CCOC(=O)C1CCCN(C(=O)c2cc(Nc3ccc(OC)c(OC)c3)nc3ccccc23)C1 (centres undefined)
5%	Cc1ccc2oc(=O)c3cnn(CC(=O)N4CCCCC4C)c3c2c1 (centres undefined)
-6%	O=C(CCC(=O)N1CCCC1)Nc1nnc(C(F)(F)F)s1
-6%	O=c1c2ccccc2nnn1Cc1ccccn1
?	Cc1ccc(C2C3=C(CC(C)(C)CC3=O)Nc3onc(C)c32)cc1 (centres undefined)
-8%	CCc1ccc(Nc2cc(C(=O)NCCCN3CCOCC3)c3ccccc3n2)cc1
?	CSc1nc(-c2ccco2)nn1C(=O)c1cccs1
?	CCCc1nc2ccc(NC(=O)c3cccs3)cc2c(=O)n1Cc1ccccc1Cl
?	CC(=O)Nc1ccccc1C
7%	Cc1ccc(C(=O)Nc2cnc3ccccc3c2)cc1

Retrieved one by one from the entries so far (2):
HPGD inh	molecule
-29%	O=C(CCn1nc(-c2ccc(Cl)cc2)c2ccccc2c1=O)NCC1CCCO1 (centres undefined)
?	COc1ccccc1-c1nc(-c2cccc(C)c2)no1

Next part:
HPGD inh	molecule
-2%	O=C(NCc1cccnc1)c1ccc(S(=O)(=O)N2CCCCC2)cc1
-14%	CCOC(=O)N1CC=C2C(C#N)=C(N)C(C#N)(C#N)[C@H](c3cccs3)[C@H]2C1
-1%	CN(C)c1ccc(CN2CCCC(O)C2)cc1 (centres undefined)
3%	OCCNCC(O)Cn1ccc2ccccc21 (centres undefined)
-10%	COc1cccc(N2CCN(c3c(C#N)c(C(F)(F)F)nn3C)CC2)c1
-12%	CC(=O)Nc1ccc(S(=O)(=O)NCc2ccc(C(=O)NCc3ccc(Cl)cc3)cc2)cc1
-2%	CCOCCCNC(=O)C(c1ccc(OC)cc1)N(Cc1ccc2c(c1)OCO2)C(=O)CNC(C)=O (centres undefined)
-13%	NCCNc1ccc([N+](=O)[O-])c(NC2CC2)c1
-27%	CC(C)Cc1nc(SCC(=O)NCc2ccccc2)n[nH]1
-20%	O=C(COc1ccccc1)NCC(=O)N/N=C/c1cc(Br)ccc1OCc1ccccc1
-7%	COc1ccc(C(=O)CSc2ncn[nH]2)cc1OC
-5%	COc1ccc(C2N(c3cc(Cl)ccc3OC)C(=O)C3CCCN32)c(OC)c1 (centres undefined)
-14%	COc1ccc(-c2ccc(=O)n(CC(=O)Nc3cccc(O)c3)n2)cc1OC
-8%	O=C(OCCN1C(=O)c2ccccc2C1=O)c1cccc(OC(F)F)c1
-3%	CNC(=S)N/N=C/c1ccccc1Cl
25µM*	O=C(Sc1nnnn1C1CCCCC1)c1cccs1
-14%	CN1C/C(=C\c2ccc(N3CCOCC3)cc2)C(=O)/C(=C/c2ccc(N3CCOCC3)cc2)C1
-13%	COc1ccc2c(c1)C(=O)[C@@H](OC(=O)N[C@H](C)C1CCCCC1)[C@H](c1ccc(OC)c(Br)c1)O2
?	CC(C)OC(=O)CC(=O)CSc1nc2c(cc1C#N)CCCCCC2

Compound activity from PubChem.
